Rango complex inh – prevents formation of the Rango-importin beta complex; Q14974; Rango CFP/YFP FRET sensor + importin beta, 45 min; Potency, µM (top dose mostly 92.2 µM), for the others: top-dose inhibition of complex formation; hit rate 0.031% among 340,000; AID 540263; active = rising FRET ratio curve, often small or poorly fitted; inconclusive = mostly compound fluorescence or quenching in the first reads; inactive = flat curves in all reads;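 further: potency means the concentration at half of the fitted maximal effect; 0% = DMSO wells and 100% = buffer wells lacking importin beta; nearly all actives have a fitted effect of over 15% in size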
Target sequence (Q14974 whole entry, looked up): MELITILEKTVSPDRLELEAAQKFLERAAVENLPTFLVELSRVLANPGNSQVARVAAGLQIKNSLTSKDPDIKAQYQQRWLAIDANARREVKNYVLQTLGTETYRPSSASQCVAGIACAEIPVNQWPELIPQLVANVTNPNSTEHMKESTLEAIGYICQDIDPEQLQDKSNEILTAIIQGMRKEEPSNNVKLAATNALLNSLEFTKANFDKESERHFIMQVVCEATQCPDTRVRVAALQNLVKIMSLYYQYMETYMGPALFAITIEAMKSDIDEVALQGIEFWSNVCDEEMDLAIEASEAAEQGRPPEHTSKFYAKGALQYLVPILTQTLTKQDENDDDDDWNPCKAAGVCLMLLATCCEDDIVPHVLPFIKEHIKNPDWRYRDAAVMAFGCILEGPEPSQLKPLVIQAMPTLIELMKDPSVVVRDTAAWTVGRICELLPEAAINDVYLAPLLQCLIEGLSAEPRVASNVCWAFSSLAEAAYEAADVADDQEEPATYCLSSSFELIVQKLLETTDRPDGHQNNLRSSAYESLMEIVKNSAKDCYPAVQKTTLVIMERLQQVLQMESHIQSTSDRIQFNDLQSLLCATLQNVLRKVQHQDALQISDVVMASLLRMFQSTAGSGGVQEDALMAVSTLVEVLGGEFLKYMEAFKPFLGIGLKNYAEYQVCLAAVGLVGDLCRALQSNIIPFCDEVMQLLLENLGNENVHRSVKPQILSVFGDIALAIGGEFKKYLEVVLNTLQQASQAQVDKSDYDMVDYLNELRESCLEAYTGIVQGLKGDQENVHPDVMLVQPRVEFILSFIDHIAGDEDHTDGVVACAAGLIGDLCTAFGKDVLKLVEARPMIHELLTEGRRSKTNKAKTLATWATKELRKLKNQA
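FRET biosensor (snurportin 1 IBB flanked by EYFP and cerulean), 50 nM, with compound 5 min, then 0.125 microM importin beta in PBS, 1 mM DTT, 0.02% Tween-20, 0.1% BSA. CFP/YFP ratio read after 45 min at room temperature; pre-read flags interference.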
miR-21 reporter – miR-21 reporter, rising signal. HeLa miR-21 FLuc reporter, luciferase, 48 h. AID 2288. 340,000 tested, under 10 active. Potency, µM (series often up to 38.3 µM), without a hit: at the top dose reporter change, positive = more light; active = well fitted rising curve with a large enough effect; inconclusive = small, poorly fitted or top-dose-only effect; inactive = no such curve, though single readings can be large or run the other way;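 further: % of control where 0% means no effect; miR-21 action dims this reporter so a rising signal means less miR-21 action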
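Using DMEM plus 10% FBS, HeLa miR-21-FLuc cells are incubated with test compounds (final up to about 40uM) for 48 hours; firefly luciferase signal is then imaged following reagent-mediated lysis.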
GLA inh pH 4.5 – inhibitors of human alpha-galactosidase A at pH 4.5; 230,000 tested, under 10 active; P06280; activity change, negative = inhibition, % at 105 µM; purified enzyme, 4-MU-alpha-Gal fluorescence, pH 4.5; inconclusive = small, poorly fitted or top-dose-only inhibition, or a rising curve; inactive = flat fitted curve, though single readings scatter; no compound was filed as active;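 further: 0% = full activity with enzyme and -100% = basal without enzyme; dose as in the result columns while the protocol names 77 µM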
Rango release inh – prevents RanGTP from dissociating the Rango-importin beta complex; O95149+P62826; Biochemical FRET Rango-importin beta, RanGTP-induced dissociation; Potency, µM (highest dose often 46.1 µM), for inactives: at the highest dose activity change, negative = inhibition; hit rate 0.071% among 340,000; AID 540253; active means falling FRET ratio curve, often poorly fitted, with flat reads before Ran was added; inconclusive means other falling curves, or compound fluorescence or quenching; inactive means flat or rising ratio curve;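 further: potency means the concentration at half of the fitted maximal effect; % of control where 0% means no effect; nearly all actives have a fitted effect of over 45% in size; -100% = wells without RanGTP and RCC1; the record marks most hits as doubtful in a second field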
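Quantitative HTS using a FRET biosensor: 0.1 uM Rango, 0.25 uM importin beta, 0.6 uM Ran, 2 mM GTP, 0.2 uM RCC1 final, PBS with DTT, Tween-20 and BSA. Post-read taken 45 min after Ran addition.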
* marks the source's active call; other numbers are inactive results; ? = inconclusive; / = not tested or not shown; & = joins results of further samples. Only part of the results is shown. The share of hits here may be higher or lower than overall.

Rango complex inh | GLA inh pH 4.5 | miR-21 reporter | Rango release inh | Molecule
? | 5 | -34% | -3% | O=C(N/N=C/c1ccc2c(c1)OCO2)c1ccc(Br)o1
-2.8% | / | 11% | 4% | CC(CC12CC3CC(CC(C3)C1)C2)NCc1ccccc1O (stereo not drawn)
-4.3% | 1 | 0% | 6% | CCOC(=O)c1ccc(NC(=O)c2ccc(NS(C)(=O)=O)cc2)cc1
-1.3% | -2 | -7% | 10% | O=C1c2ccccc2NC2(CCCC2)N1O
0.3% | -2 | -5% | 0% | O=C(NCC1CCCO1)c1cn(-c2ccccc2)nc1-c1ccccc1 (stereo not drawn)
1.5% | / | 18% | -12% | CC(C)=N/N=C1/NC(=O)C(Cc2ccccc2)S1 (stereo not drawn)
-0.4% | / | 4% | -1% | CCCN(CCC)S(=O)(=O)c1cc2c3c(c1)CCN3C(=O)CC2
-4.7% | 2 | -45% | 5% | CCOC(=O)N/N=C(\C)c1ccc(Br)cc1
? | / | / | -13% | CC1(c2ccc(OC(F)F)cc2)NC(=O)N(CC(=O)Nc2ccc3[nH]c(=O)[nH]c3c2)C1=O (stereo not drawn)
-1.6% | / | -51% | 7% | COc1ccccc1/C=C/C(=O)NC(=S)Nc1ccccn1
0.1% | / | 3% | -5% | O=C(CN(Cc1ccccc1)C(=O)c1csnn1)NCc1ccc2c(c1)OCO2
-2.3% | -8 | 2% | -13% | CCOC(=O)N1CCN(c2ncnc3c2[nH]c2ccc(OC)cc23)CC1
0.6% | 0 | 1% | 2% | C/C=N\NC(=O)COc1cc(C)ccc1C
1.3% | / | 0% | 13% | Cc1cc(C)n(C(=O)CN(C)S(=O)(=O)c2ccc([N+](=O)[O-])cc2)n1
-1.8% | -4 | -42% | 1% | COc1ccc(C(=O)Nc2ccc3c(c2)nc(CCNC(C)=O)n3C)cc1
-1.9% | 3 | -3% | 11% | CC(C)NC(=O)c1ccccc1NC(=O)/C=C/c1ccc([N+](=O)[O-])cc1

4 records drawn at random from the list so far:
Rango complex inh | GLA inh pH 4.5 | miR-21 reporter | Rango release inh | Molecule
-1.6% | / | -51% | 7% | COc1ccccc1/C=C/C(=O)NC(=S)Nc1ccccn1
0.6% | 0 | 1% | 2% | C/C=N\NC(=O)COc1cc(C)ccc1C
-2.3% | -8 | 2% | -13% | CCOC(=O)N1CCN(c2ncnc3c2[nH]c2ccc(OC)cc23)CC1
? | / | / | -13% | CC1(c2ccc(OC(F)F)cc2)NC(=O)N(CC(=O)Nc2ccc3[nH]c(=O)[nH]c3c2)C1=O (stereo not drawn)

Next records follow.
Rango complex inh | GLA inh pH 4.5 | miR-21 reporter | Rango release inh | Molecule
5.2% | / | / | -12% | C=CCn1c(SCC(=O)N(CCOC)c2c(N)n(CC(C)C)c(=O)[nH]c2=O)nc2ccccc21
-1.4% | / | / | 1% | COc1ccc(CCN(C)C2CCCN(S(=O)(=O)N(C)C)C2)cc1OC (stereo not drawn)
-4.9% | 1 | 0% | -24% | CCCNS(=O)(=O)c1cc(Cl)ccc1OC
-3.0% | 4 | 3% | 5% | COc1ccc(C(=O)c2c[nH]c(C(=O)NCCCN3CCOCC3)c2)cc1
-1.5% | 2 | -41% | 1% | CCOC(=O)N1CCN(C(=O)CCCOc2ccccc2)CC1
-1.4% | -4 | 6% | 3% | OCc1nc2ccccc2n1CC(O)Cn1ccc2ccccc21 (stereo not drawn)
-0.1% | / | 2% | 15% | CCN(CC)S(=O)(=O)c1ccc(Cl)c(C(=O)OC2CC(C)OC2=O)c1 (stereo not drawn)
0.1% | / | / | -8% | Nc1ccc(CSc2ccc(Cl)cc2)c(Cl)c1
0.3% | -2 | -11% | 0% | CCC(=O)N1CCN=C1SCc1ccc(F)cc1
-0.7% | / | 2% | 3% | CN1CCN(C(=O)/C(=C/c2cn(S(=O)(=O)N(C)C)c3ccccc23)NC(=O)c2ccccc2Cl)CC1
0.3% | 9 | -3% | -10% | CCOC(=O)N1CCN(S(=O)(=O)c2ccc(C(=O)Nc3nc4ccc(F)cc4s3)cc2)CC1
-3.5% | 1 | 25% | -7% | O=C(NCCc1ccc(Cl)cc1)C1CCN(S(=O)(=O)c2ccc(Br)s2)CC1
1.9% | / | 4% | 20% | O=C(c1ccccc1F)N(Cc1ccccc1)Cc1ccccc1
4.1% | -4 | -5% | 13% | CC(=O)Nc1ccc(NC(=O)CN(c2cccc(C)c2)S(C)(=O)=O)cc1
-0.9% | / | 0% | 12% | COc1cc(NC(=O)CCC(=O)c2cccs2)cc(OC)c1
0.3% | 5 | -8% | -15% | Cc1nn(C)cc1S(=O)(=O)N1CCN(Cc2cccc(Cl)c2)CC1
-0.7% | / | -3% | 2% | CCOC(=O)c1cc(-c2ccc([N+](=O)[O-])cc2)nc2c1c(=O)[nH]c(=O)n2Cc1ccccc1
0.2% | / | / | -1% | Cc1ccnc(NC(=O)C2CCN(S(=O)(=O)c3ccc(Cl)c(C(F)(F)F)c3)CC2)c1
0.1% | -7 | -7% | 8% | COc1ccc(NC(=O)c2ccccc2Cl)cc1NC(=O)CN1CCOCC1
2.9% | -7 | -13% | 0% | N#Cc1ccccc1Cn1c(=O)n(Cc2ccc(C(=O)NCc3ccco3)cc2)c(=O)c2sccc21
-5.3% | 0 | 1% | 1% | COC(=O)CNC(=O)Cn1nc(C)c([N+](=O)[O-])c1C
2.6% | -5 | 2% | -4% | CC(NC(=S)Nc1ccccc1Cl)C(c1cccs1)N1CCCC1 (stereo not drawn)
-0.2% | / | 21% | 0% | CCCCC(=O)NC(c1ccc(N(C)C)cc1)c1ccc2cccnc2c1O (stereo not drawn)
0.1% | -7 | -43% | -7% | COc1ccc(-c2nnc(SCC(=O)N3CCc4ccccc4C3)o2)cc1
-3.6% | / | -5% | -13% | Cc1ccc(-c2noc(CCC(=O)NC3CCCC3)n2)cc1
-1.1% | 9 | -44% | 0% | Nc1ncccc1OCc1ccc(Br)cc1
-2.4% | -3 | -1% | 0% | O=C(COc1ccc(S(=O)(=O)NC2CCCCC2)cc1)NCc1ccccn1
4.2% | -1 | -2% | 2% | CN1C(=O)NC(c2ccccc2)C2=C1CN(c1ccc3ccccc3c1)C2=O (stereo not drawn)
1.5% | -3 | -5% | -1% | CCn1cc(C2=NOC(C(=O)Nc3ccc4c(c3)OCO4)C2)c(C)n1 (stereo not drawn)
-1.7% | / | -30% | 4% | CC(C)(C)c1ccc(-c2noc(CNC(=O)c3ccco3)n2)cc1
-0.5% | 0 | 1% | -10% | C=CCn1c(COc2ccc(Cl)cc2)nnc1SCC(=O)N/N=C/c1cccc(O)c1
2.0% | 1 | -5% | 12% | COC(=O)c1cc(C(=O)Nc2ccc(S(=O)(=O)NC(C)(C)C)cc2)cc([N+](=O)[O-])c1
0.4% | 5 | -1% | -22% | Cn1c(N)c(C(=O)COC(=O)Cc2ccsc2)c(=O)n(C)c1=O
1.4% | / | 4% | 5% | CC(=O)N1CCOc2ccc(S(=O)(=O)N3CCC(C(=O)NCc4ccc(F)cc4)CC3)cc21
-1.6% | / | / | 8% | NS(=O)(=O)c1cc(C(=O)OCC(=O)Nc2ccc3[nH]c(=O)[nH]c3c2)ccc1Cl
-0.6% | -2 | -1% | 3% | CCOc1ccccc1C1C(C(=O)Nc2ccccc2OC)=C(C)Nc2nnnn21 (stereo not drawn)
0.4% | / | / | 13% | COCCN(Cc1ccccc1)C(=O)c1ccc2c(=O)n3c(nc2c1)CCC3
-0.1% | -6 | -1% | 16% | c1ccc2c(c1)CNC1(CCCCC1)C2
? | -12 | 2% | 1% | CC1=CC2=NC(=O)/C(=C\c3cccn3CCOc3ccccc3)C(=N)N2O1
? | / | / | 11% | CCCCCC(=O)Nc1ccc(C(=O)COC(=O)Cn2cnc3c2c(=O)n(C)c(=O)n3C)cc1
-1.3% | / | -1% | -17% | Cc1ccc(OCC(=O)Nc2nnc(S(=O)(=O)N3CCC(C)CC3)s2)cc1
5.8% | -2 | -4% | -2% | CCOC(=O)c1c(O)c2ccccc2n(-c2ccccc2)c1=O
-1.1% | -4 | 1% | -6% | O=C(CC1Sc2ncnn2C1=O)Nc1ccccc1 (stereo not drawn)
-2.0% | -11 | ? | 4% | Cc1c(Cl)cccc1NC(=S)NNc1ncc(C(F)(F)F)cc1Cl
-4.2% | 1 | -11% | -5% | O=C(Nc1ccc2ccccc2c1)c1onc2c1CCCC2
0.5% | -23 | -67% | 6% | C/C(=N\N=C(/N)c1nonc1N)c1ccc2c(c1)OCO2
0.2% | / | -21%&24% | 3% | COc1ccc(-c2cc(C(=O)N3CCN(c4ccccc4)CC3)no2)cc1
0.7% | -11 | 7% | -1% | CC1CCc2c(sc(NC(=O)CCCn3cnc([N+](=O)[O-])n3)c2C(N)=O)C1 (stereo not drawn)
-4.1% | -7 | 23% | -4% | CC(=O)c1c(C)[nH]c(C(=O)OCC(=O)Nc2cc(Cl)ccc2[N+](=O)[O-])c1C
1.4% | / | -20% | 1% | CCCn1cnc2cc(NC(=O)c3ccco3)ccc21
-5.3% | 11 | -33% | -16% | O=C1NCCN(Cc2ccc(Cl)c(F)c2)C1CC(=O)N1CCCO1 (stereo not drawn)
0.1% | / | / | 5% | CSC1(SC2=NCCN2)SC2(NCCN2)S1
1.9% | / | 2% | 7% | CCCOC(=O)C1=C(C)NC(=O)NC1c1cccc2ccccc12 (stereo not drawn)
0.5% | -4 | -40% | 0% | COc1ccc(C(=O)NN/C(=N/S(=O)(=O)c2ccc(C)cc2)c2ccccc2)cc1
4.3% | 3 | -18% | 2% | COc1ccc(-c2cc(-c3ccc(OC)cc3)c(C#N)c(SC)n2)cc1
5.3% | -14 | -1% | -21% | COCC(C)NC(=O)c1ccc(CN2CCc3ccccc3C2)cc1 (stereo not drawn)

Remaining list, next part:
Rango complex inh | GLA inh pH 4.5 | miR-21 reporter | Rango release inh | Molecule
-4.4% | -9 | -5% | -14% | COc1ccc(-c2csc(Nc3ccc(S(=O)(=O)Nc4cc(C)on4)cc3)n2)cc1
0.2% | 10 | -30% | 10% | O=C(Nc1ccn(Cc2ccccc2)n1)c1ccc2c(c1)OCO2
-2.6% | 4 | -5% | 0% | O=C(O)Cc1ccc(C(=O)c2ccc(F)cc2)s1
1.6% | / | -53% | 9% | CCc1ccc(NC(=O)N2CCc3ccccc3C2)cc1
-4.3% | 9 | -1% | -2% | COc1cccc(NC(=O)[C@@H]2CCCN2C(=O)C2CCN(S(=O)(=O)c3ccc(C)cc3)CC2)c1
1.0% | 2 | -22% | 4% | N#CCCCCN1c2cccc3cccc(c23)S1(=O)=O
0.1% | 14 | -9% | -12% | Cc1oc2cc3oc(=O)c4c(c3cc2c1C)CCC4
0.0% | 9 | 0% | 27% | CC(CN1CCN(C)CC1)OC(=O)c1ccc(F)cc1 (stereo not drawn)
-1.8% | / | -4% | -5% | Cc1cc(C)n2nc(CNS(=O)(=O)c3ccc(F)c(C)c3)nc2n1
? | / | -3% | -9% | COc1ccccc1CSc1nc2c(c(=O)n(C)c(=O)n2C)n1C
2.7% | -11 | -7% | -2% | COc1ccc(S(=O)(=O)N2CCOCC2)cc1NC(=O)c1ccc2c(c1)OCCO2
-1.4% | -7 | -25% | 4% | COc1ccc(CN(C)CC(=O)Nc2ccc(N3CCOCC3)cc2)cc1OC
2.0% | -13 | -53% | 8% | CC(C)C(=O)Nc1ccc2c(c1)oc1ccccc12
0.2% | / | -8% | -6% | O=C(Nc1ccc2c(c1)C(=O)OC2)c1ccc(Cl)cc1Cl
2.6% | -3 | 0% | 4% | CCN(CC)C(=O)c1ccc(NS(=O)(=O)c2ccc(/C=C/C(=O)O)cc2)cc1
0.1% | / | -5% | -5% | CCOc1ccc(NC(=S)N2CCC(c3ccc(C)cc3)C2)cc1 (stereo not drawn)
? | -3 | -5% | ? | CC(=O)c1sc(-c2ccccc2)cc1NS(=O)(=O)c1ccc(C)cc1
-0.5% | -6 | -19% | -2% | C=CCn1c(SCC#N)nc2ccccc2c1=O
-0.2% | -5 | -7% | -12% | COc1ccc(CC(=O)Nc2ccc(C(=O)NC(C)(C)C)cc2)cc1

High-throughput results deposited in PubChem by National Center for Advancing Translational Sciences (NCATS).
